ALR inh: inhibitors of human sulfhydryl oxidase ALR. P55789. purified ALR, DTT oxidation, H2O2 HRP-luminol luminescence. inhibition, % (concentration not given with the values). 290,000 compounds, 3.8% hits. AID 485317;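 active = mean and each replicate at 75% or more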;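 also: stock transfer was 7.5 nL into about 7.5 µL; 0% = neutral wells and 100% = wells with inactivated enzyme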
E coli growth: E. coli growth inhibition. 330,000 compounds, 0.21% hits. OD600 absorbance (test concentration not listed). Escherichia coli growth, OD600, 23 h; stronger effect = lower value. AID 1053175;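 active = OD600 absorbance below the run mean of sample wells minus 3.6 SD, in any replicate, cut at about 0.56 in these data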;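 also: stock transfer was 300 nL into about 60 µL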
UCH37 DUB inh: blocks the human deubiquitinase UCH37; Q9Y5K5; purified proteasome/UCH37, Ub-AMC cleavage fluorescence; inhibition, % (test concentration not listed); 330,000 compounds, 0.33% hits; AID 588478;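 active = mean of two replicates above 20%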;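 also: 0% = compound-free wells with enzyme and 100% = wells lacking proteasome; stock transfer was 100 nL into about 20 µL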
Target sequence (Q9Y5K5 whole entry, looked up): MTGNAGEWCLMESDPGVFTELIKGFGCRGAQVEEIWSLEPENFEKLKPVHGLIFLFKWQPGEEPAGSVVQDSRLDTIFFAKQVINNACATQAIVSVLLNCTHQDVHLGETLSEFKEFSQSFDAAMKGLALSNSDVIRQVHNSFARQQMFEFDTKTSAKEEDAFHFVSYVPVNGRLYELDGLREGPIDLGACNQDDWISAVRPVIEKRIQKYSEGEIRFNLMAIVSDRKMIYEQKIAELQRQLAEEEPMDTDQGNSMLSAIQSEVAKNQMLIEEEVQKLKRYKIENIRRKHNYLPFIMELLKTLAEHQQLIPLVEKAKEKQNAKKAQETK
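Material: Human UCH37 enzyme supplied as purified proteasome complex | Schedule: 30 min compound-proteasome preincubation then 25 min substrate reaction, room temperature | Detection: AMC fluorescence from Ub-AMC cleavage, excitation 355 nm, emission 460 nm | Benchmarks: Wells without proteasome as full block, compound-free enzyme plus substrate as uninhibited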
LANA-H2B inh: blocks KSHV LANA binding to histone H2A/H2B | Q9QR71 | cell-free LANA-H2A/H2B peptide, fluorescence polarization | inhibition, % (no concentration beside the values) | 320,000 compounds, 0.6% hits; in the data active = inhibition mostly above about 10%, no sharp cut-off; inactive = mostly below about 6.7%;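 also: stock transfer was 7.5 nL into about 10 µL; 0% = median of vehicle wells and 100% = median of positive control wells; one replicate is shown; the record names a cut of 25% in any replicate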
Beta2AR agonist: agonists of human beta-2 adrenergic receptor inducing internalization | Am2.2-beta2AR cells, FAP receptor internalization, flow cytometry; reference of the scale not given here | 340,000 compounds, 0.43% hits | P07550 | response, % (no concentration beside the values);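 active = response above a set limit, near 3 SD of response in nonfluorescent compounds, cut at about 42% in these data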;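 also: stock transfer was 100 nL into about 11 µL; a reference agonist was the positive control; negative values mostly stem from fluorescent compounds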
Target sequence (P07550 whole entry, looked up): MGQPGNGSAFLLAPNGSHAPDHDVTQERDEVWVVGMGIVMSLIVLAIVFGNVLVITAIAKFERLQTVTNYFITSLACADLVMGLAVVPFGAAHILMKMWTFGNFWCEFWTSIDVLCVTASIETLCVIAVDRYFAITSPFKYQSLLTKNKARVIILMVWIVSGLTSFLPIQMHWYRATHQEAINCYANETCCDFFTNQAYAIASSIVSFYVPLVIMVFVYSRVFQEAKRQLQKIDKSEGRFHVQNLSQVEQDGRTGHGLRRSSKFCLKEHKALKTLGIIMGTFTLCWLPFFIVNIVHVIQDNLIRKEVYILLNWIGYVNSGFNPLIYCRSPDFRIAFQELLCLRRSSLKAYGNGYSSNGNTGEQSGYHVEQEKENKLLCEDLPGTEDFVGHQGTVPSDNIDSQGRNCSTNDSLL
HNF4A DNA FP: change in binding of human HNF4 alpha to DNA; P41235; HNF4a-FITC DNA binding, fluorescence polarization, 1 h; activity change, % at 10 µM; 360,000 compounds, 0.3% hits; in the data active = activity change above about 30%, passing the limit was not always enough;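 also: controls were the assay level and a saturating level of protein; the project sought stronger binding though the title names inhibitors; some compounds called inactive have numbers as strong as hits; positive values seem to mean higher polarization but the record does not say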
FGF22 binding: FGF22 (human) thermal shift binding. Q9HCT0. recombinant FGF22 thermal shift, SYPRO orange fluorescence; percent of sucrose octasulfate shift, DMSO zero. calls only at 9.99 µM. 340,000 compounds, 1.5% hits;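 active = melting point raised past a set limit in the mean and every replicate; three in four hits are not shown here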
Target sequence (Q9HCT0 whole entry, looked up): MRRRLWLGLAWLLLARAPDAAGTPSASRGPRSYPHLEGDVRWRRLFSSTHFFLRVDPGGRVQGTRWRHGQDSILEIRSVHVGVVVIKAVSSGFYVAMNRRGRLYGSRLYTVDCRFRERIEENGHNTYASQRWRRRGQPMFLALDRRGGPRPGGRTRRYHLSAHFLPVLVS
An asterisk follows results filed as active; i = inactive; nt = no result given.

SMILES,Beta2AR agonist,E coli growth,FGF22 binding,UCH37 DUB inh,ALR inh,LANA-H2B inh,HNF4A DNA FP
Cc1csc(=O)n1CCC(=O)OCC(=O)Nc1ccc(S(N)(=O)=O)cc1,-13,0.65,i,3.2,5,nt,5.0
COc1ccccc1N1CCN(C2=CC(=O)CCC2)CC1,-5,0.71,nt,-1.4,31,1.8,-0.2
CCN(CC)C(=O)CN(c1cc(Cl)ccc1OC)S(C)(=O)=O,-1,0.67,nt,0.9,-7,-4.2,1.5
COc1nc(N2CCOCC2)nc(C)c1[N+](=O)[O-],15,0.67,i,9.3,-9,-9.7,1.4
CC(C)C(NC(=O)c1ccc2c(c1)OCO2)C(=O)N/N=C\c1ccco1 (centres undefined),-16,nt,i,nt,-3,5.7,-0.4
COc1ccc(S(=O)(=O)Nc2cccc(S(=O)(=O)NC3=NCCC3)c2)cc1[N+](=O)[O-],-1,0.68,nt,6.7,-5,-3.9,3.9
CCOP(=O)(OCC)/C(C#N)=C/c1cc(OC)ccc1OC,-13,0.65,i,-18,-1,0.9,-3.5
CCCCSc1nnc([C@H](C)NC(=O)OC(C)(C)C)o1,1,0.72,nt,0.9,-2,-2.7,0.4
O=C(NNc1cccc(Cl)n1)c1c(F)cccc1F,-3,0.71,i,4.7,nt,0.9,3.7
CC(C)CN(C(=O)COC(=O)CCC(=O)c1ccc(F)cc1)c1c(N)n(Cc2ccccc2)c(=O)[nH]c1=O,1,0.7,nt,3.2,nt,-0.2,3.0
CC(=O)Nc1ccc(/C(C)=N/NC(=O)C2CC2c2ccccc2)cc1 (centres undefined),0,nt,i,nt,-11,4.3,-2.4
CCOC(=O)c1nc(C)n(-c2cc(Cl)ccc2Cl)n1,-2,0.7,nt,3.0,17,-2.9,-0.9
CCN(CC)S(=O)(=O)c1ccc(/C=C/C(=O)OCC(=O)NCc2ccco2)cc1,-3,0.72,i,1.2,nt,-0.7,-13
COCCN1C(=O)C(=O)/C(=C(/O)c2cccc(OC)c2)C1c1ccc(C)o1 (centres undefined),-3,0.71,nt,8.5,7,-6.1,-4.8
CC(=O)c1nnn(-c2ccc(Cl)cc2C#N)c1C,1,0.67,i,4.9,2,10*,-0.1
Cc1ccc(C(=O)N2CCN(c3ccc(NC(=O)c4cccs4)cc3)CC2)cc1,-2,0.7,i,0.1,11,1.6,2.2
COc1ccc(C2=CC(=O)C[C@H](CN3C(=O)c4ccccc4C3=O)N(C(=O)OC(C)(C)C)O2)cc1,9,nt,i,nt,nt,nt,0.3
Cc1cccc(NC(=O)CSCC(=O)N(CCC(C)C)c2c(N)n(Cc3ccccc3)c(=O)[nH]c2=O)c1,-2,0.68,i,4.4,-17,-2.2,-2.2
O=[n+]1c2c(n([O-])c3ccccc31)CCCC2,4,0.7,nt,6.6,-8,2.0,0.8
CCCCCc1ccc(-c2ccc(OCC)cc2)nc1,3,0.7,i,1.4,-4,-0.2,-0.7
O=C/C=C/c1c(-c2ccccc2)cc2oc3ccccc3cc1-2,64*,nt,i,nt,nt,-0.5,-5.4
COC(=O)Cc1[nH]nc2c1C1(C(=O)N(Cc3ccccc3)c3ccccc31)C(C#N)=C(N)O2 (centres undefined),2,0.74,nt,2.0,nt,4.3,-0.9
Cc1cccc(OC(=O)c2cn(C)nc2C(F)(F)F)c1C,-11,0.77,nt,6.9,-26,-2.4,-2.6
CN1CCN(S(=O)(=O)c2cccc(C(=O)O)c2)CC1,-3,0.69,i,5.0,-1,-0.7,-2.9
CN(C)c1ccc(C(=S)N2CCCC2)cc1Br,1,0.68,i,-0.6,-22,-2.3,0.5
C/C=C1\COC(C(=O)NCCCN2CCCC2=O)(C(F)(F)F)C=C1C=C(C)C (centres undefined),-4,nt,i,-0.4,13,2.8,0.2
COc1ccc(C)cc1Nc1n[n+](-c2ccccc2)c(-c2cc([N+](=O)[O-])cc(OC)c2O)s1,-80,0.7,nt,2.3,3,-1.9,207
COc1ccc(C(=O)N/N=C/c2cc3ccccc3[nH]c2=S)cc1,-4,nt,nt,nt,10,3.3,1.6
Cc1ccc(C2(C)NC(=O)N(CC(=O)NCCC3=CCCCC3)C2=O)cc1 (centres undefined),6,0.74,nt,3.7,10,5.8,7.3
CC(C)(C)C(=O)N1CCN(c2ccc(NC(=O)c3ccc([N+](=O)[O-])o3)cc2)CC1,24,0.72,i,6.3,-25,24,-2.6

Whole records, quoted from the list:
Cc1ccc(C2(C)NC(=O)N(CC(=O)NCCC3=CCCCC3)C2=O)cc1 (centres undefined) reads Beta2AR agonist: 6; E coli growth: 0.74; FGF22 binding: nt; UCH37 DUB inh: 3.7; ALR inh: 10; LANA-H2B inh: 5.8; HNF4A DNA FP: 7.3
COc1ccc(C(=O)N/N=C/c2cc3ccccc3[nH]c2=S)cc1 reads Beta2AR agonist: -4; E coli growth: nt; FGF22 binding: nt; UCH37 DUB inh: nt; ALR inh: 10; LANA-H2B inh: 3.3; HNF4A DNA FP: 1.6

(further entries)
SMILES,Beta2AR agonist,E coli growth,FGF22 binding,UCH37 DUB inh,ALR inh,LANA-H2B inh,HNF4A DNA FP
Cc1ccc2[nH]c(C(=O)NCCN3CCCC3)cc2c1,0,0.64,i,-17,-6,-1.5,1.9
N#Cc1c(-c2ccc(F)cc2)c2c([nH]c1=O)-c1ccccc1OC2,-4,0.72,i,-214,-1,-0.3,-2.6
Cn1cc(CN2CCCC(C(=O)Nc3cccc(-n4cccn4)c3)C2)cn1 (centres undefined),-14,0.69,i,4.7,-2,-3.3,4.6
O=C(O)C1CCCCN1S(=O)(=O)c1ccc(Cl)s1 (centres undefined),10,0.76,i,0.5,4,2.2,1.2
O=C(CN1CCN(c2ccccn2)CC1)N1c2ccccc2Sc2ccc(C(F)(F)F)cc21,4,0.76,nt,1.3,-5,-2.7,-3.2
Cc1ccc(C2CCN(C(=O)Nc3ccc(F)cc3)C2)cc1 (centres undefined),6,0.63,i,1.7,-3,2.3,-5.1
CC(=O)Nc1ccc(NC(=O)CSc2nnnn2-c2ccccc2F)cc1,6,0.68,i,0.4,-5,0.0,3.1
COC(=O)c1ccc(S(=O)(=O)N2CCc3ccccc3C2)cc1,-8,0.72,i,-0.2,nt,1.8,0.5
CCCCCOc1ccc(C2NC(=O)NC2=O)cc1 (centres undefined),-1,0.71,i,6.6,6,6.1,-2.6
CCN(CC)Cc1cc(CCNC(=O)c2ccc(Cl)cc2)ccc1O,8,0.75,nt,5.5,23,-2.1,1.4
O=C(OCc1cc(=O)n2c(n1)sc1ccccc12)c1ccc(O)cc1O,-10,nt,i,nt,-7,4.8,-28
O=c1[nH]c2cc3c(cc2cc1CN(Cc1cccnc1)Cc1nnnn1Cc1ccco1)OCCO3,-15,0.66,i,-115,3,-0.8,-0.9
COc1ccc(/C=C2\CCCc3c2nc2ccc(C)cc2c3C(=O)O)cc1O,4,0.7,i,3.3,nt,-0.5,-0.9
CCOC(=O)CSc1n[nH]c(NC(=O)NC(C)C)n1,3,0.68,i,1.8,-13,-3.4,1.9
CN(CC(=O)Nc1ccc(C(N)=O)cc1)CC(=O)Nc1ccccc1Cl,13,0.73,i,4.0,-5,-8.1,0.5
Cc1noc(C)c1NC(=O)N(C)C[C@H]1Oc2c(NC(=O)NC(C)C)cccc2C(=O)N([C@H](C)CO)C[C@@H]1C,8,0.75,i,-4.0,0,-2.6,1.4
COCc1cc(C)nc(SCC(=O)N2CCC(C)CC2)c1C#N,-2,0.66,nt,4.2,19,-0.2,-5.3
Cc1ccc(S(=O)(=O)N(CC(=O)NCc2cccnc2)c2ccc(F)cc2)cc1,7,0.63,i,1.2,1,-1.2,-1.2
CCOCCCNC(=O)c1ccc2nc(-c3ccc(OC)c(OC)c3)c(-c3ccc(OC)c(OC)c3)nc2c1,19,0.7,nt,1.1,-3,-9.5,1.1
COc1cccc(NC=C2C(=O)OC3(CCCCC3)OC2=O)c1,3,0.62,nt,6.1,-4,0.3,-1.0
COc1ccccc1NC(=O)N1CCCC1,4,0.75,nt,3.1,-6,7.5,-0.7
CCOc1ccccc1NC(=O)c1cnc2n(c1=O)CCS2,-19,0.68,nt,-11,-4,-1.8,-2.7
COc1c2c(nc3occc13)C(CC=C(C)C)(OC)C(O)CC2 (centres undefined),3,0.7,nt,-1.0,-5,3.1,1.3
O=C(Nc1ccncc1)c1ccc(NS(=O)(=O)c2ccc3[nH]c(=O)[nH]c3c2)cc1,2,0.72,i,2.1,-2,0.1,-1.4
O=C(NCC1CCCO1)c1ccc2c(=O)n(Cc3cccc(Br)c3)c(=S)[nH]c2c1 (centres undefined),-4,0.7,i,1.8,-3,-2.8,1.8
Fc1ccccc1CN1CCN(c2ncccn2)CC1,-3,0.63,i,2.9,-7,-9.1,1.7
CCCC(=O)Nc1ccc(Cl)c(NC(=S)NC(=O)c2cc3ccccc3o2)c1,-6,0.74,i,4.3,4,1.3,2.8
Oc1cccnc1CN1CCOCC1,-5,0.67,i,-0.8,nt,nt,7.5
Cc1ccc2cc(C=O)c(N3CCOCC3)nc2c1C,9,0.66,i,-3.1,nt,-0.6,-0.6
COc1cccc(NC(=O)c2ccccc2-c2ccccc2)c1,7,nt,i,nt,-1,-10,-4.2
COC(=O)c1c(-c2ccc(OC)cc2)oc2ccc(-c3cc(OC)c(OC)c(OC)c3)cc12,9,nt,i,nt,0,0.9,-0.1
COc1ccc(Oc2ccc(-c3ccn[nH]3)cc2)cc1,2,0.68,i,5.5,-27,3.4,-0.1
COc1ccccc1N(CC(=O)N(c1ccccc1)C(C)C)S(=O)(=O)c1cccs1,-4,0.68,i,6.4,nt,-0.7,4.2
COc1ccc(-n2nc(C(=O)NCC(=O)NCc3cccc(F)c3)c3ccccc3c2=O)cc1Cl,2,0.7,i,-22,-1,-2.3,0.5
CCCc1c(-c2ccc(O)cc2)nn(-c2ccc(O)cc2)c1-c1ccc(O)cc1,-9,nt,nt,4.4,nt,-2.2,-5.1
O=C(/C=C/c1ccco1)NC(=S)Nc1ccc(N2CCOCC2)c(Cl)c1,-10,0.78,nt,1.7,5,1.8,0.2
COc1ccc(CNC(=O)C2COc3ccccc3O2)cc1 (centres undefined),4,0.71,nt,-0.1,-9,5.4,0.2
Cc1c(NS(=O)(=O)c2ccc3c(c2)CCN3C(=O)C2CC2)c(=O)n(-c2ccccc2)n1C,4,0.71,nt,0.5,-6,-2.1,2.9

From PubChem

Some of the compounds tested; rates above refer to the full screens.
